Rango-impB inh: Rango-importin beta binding inhibition; Potency, µM (highest dose often 92.2 µM), inactives show at the highest dose inhibition of complex formation; hit rate 0.031% among 340,000; Rango CFP/YFP FRET sensor + importin beta, 45 min; Q14974; active = rising FRET ratio curve, often small or poorly fitted; inconclusive = mostly compound fluorescence or quenching in the first reads; inactive = flat curves in all reads;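 note: potency is the fitted concentration of half-maximal effect; 0% = DMSO wells and 100% = buffer wells lacking importin beta; nearly all actives have a fitted effect of over 15% in size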
Target sequence (Q14974 whole entry, looked up): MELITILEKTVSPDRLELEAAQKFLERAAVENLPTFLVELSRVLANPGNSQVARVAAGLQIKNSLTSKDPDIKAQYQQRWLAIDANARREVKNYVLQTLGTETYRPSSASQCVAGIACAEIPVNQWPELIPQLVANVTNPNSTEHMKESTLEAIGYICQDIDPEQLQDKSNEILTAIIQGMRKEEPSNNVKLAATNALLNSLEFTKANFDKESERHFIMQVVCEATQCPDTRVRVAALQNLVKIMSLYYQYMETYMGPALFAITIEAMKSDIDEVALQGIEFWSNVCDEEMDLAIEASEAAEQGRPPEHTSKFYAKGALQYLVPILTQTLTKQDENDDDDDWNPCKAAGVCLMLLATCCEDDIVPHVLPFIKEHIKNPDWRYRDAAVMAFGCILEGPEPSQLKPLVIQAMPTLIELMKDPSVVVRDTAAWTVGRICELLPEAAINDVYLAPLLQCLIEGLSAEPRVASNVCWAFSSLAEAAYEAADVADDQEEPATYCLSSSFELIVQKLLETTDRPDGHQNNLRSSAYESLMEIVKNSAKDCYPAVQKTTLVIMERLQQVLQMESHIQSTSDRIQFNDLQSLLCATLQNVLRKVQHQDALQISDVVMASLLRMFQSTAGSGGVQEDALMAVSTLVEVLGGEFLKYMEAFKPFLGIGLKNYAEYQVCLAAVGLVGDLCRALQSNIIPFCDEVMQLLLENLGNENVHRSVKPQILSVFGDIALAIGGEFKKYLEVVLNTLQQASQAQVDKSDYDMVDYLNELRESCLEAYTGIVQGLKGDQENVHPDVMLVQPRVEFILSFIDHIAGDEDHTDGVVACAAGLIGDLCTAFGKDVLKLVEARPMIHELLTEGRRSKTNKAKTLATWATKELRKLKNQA
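FRET biosensor Rango (snurportin 1 IBB between N-terminal EYFP and C-terminal Cerulean), 50 nM in PBS/1 mM DTT/0.02% Tween-20/0.1% BSA, preincubated 5 min RT with compound; 0.125 microM importin beta added, 45 min RT, CFP/YFP FRET ratio read.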
GLA inh pH 4.5: blocks human alpha-galactosidase A at pH 4.5; purified enzyme, 4-MU-alpha-Gal fluorescence, pH 4.5; activity change, negative = inhibition, % at 105 µM; 230,000 tested, under 10 active; AID 1467; inconclusive = small, poorly fitted or top-dose-only inhibition, or a rising curve; inactive = flat fitted curve, though single readings scatter; no compound was filed as active;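 note: 0% = full activity with enzyme and -100% = basal without enzyme; dose as in the result columns while the protocol names 77 µM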
Rango dissoc inh: inhibition of RanGTP-driven Rango-importin beta dissociation; O95149+P62826; Biochemical FRET Rango-importin beta, RanGTP-induced dissociation; Potency, µM (highest dose often 46.1 µM), without a hit: at the highest dose activity change, negative = inhibition; hit rate 0.071% among 340,000; active means falling FRET ratio curve, often poorly fitted, with flat reads before Ran was added; inconclusive means other falling curves, or compound fluorescence or quenching; inactive means flat or rising ratio curve;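 note: potency is the fitted concentration of half-maximal effect; % of control where 0% means no effect; nearly all actives have a fitted effect of over 45% in size; -100% = wells without RanGTP and RCC1; the record marks most hits as doubtful in a second field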
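Rango FRET biosensor (snurportin-1 IBB flanked by N-terminal EYFP and C-terminal CFP10) at 0.1 uM, with 0.25 uM importin beta in PBS, 1mM DTT, 0.02% Tween-20, 0.1% BSA. 0.6 uM Ran, 2mM GTP and 0.2 uM RCC1 were then added for 45 min at room temperature. Inhibition read as loss of FRET rise.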
miR-21 FLuc: raises the signal of a miR-21 reporter; HeLa miR-21 FLuc reporter, luciferase, 48 h; Potency, µM (highest dose often 38.3 µM), for inactives: at the highest dose reporter change, positive = more light; 340,000 tested, under 10 active; active = well fitted rising curve with a large enough effect; inconclusive = small, poorly fitted or top-dose-only effect; inactive = no such curve, though single readings can be large or run the other way;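 note: % of control where 0% means no effect; miR-21 action dims this reporter so a rising signal means less miR-21 action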
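Luminescence from a firefly luciferase reporter carrying a miR-21 binding site downstream, stably expressed under a CMV promoter in HeLa cells that make miR-21 endogenously, reports miRNA modulation after 48 h compound exposure up to approximately 40uM final.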
An asterisk follows results filed as active; ? = inconclusive; nt = no result given; & = joins results of further samples. The list is partial; the hit share may differ from the screen's.

| Molecule | miR-21 FLuc | Rango dissoc inh | Rango-impB inh | GLA inh pH 4.5 |
| --- | --- | --- | --- | --- |
| CCOc1ccc(-c2nnc(NC(=O)CCCOc3cccc(C)c3)o2)cc1 | -26.1% | 14.2% | 3.1% | -7.9 |
| CC1CCCCN1C(=O)c1c([N+](=O)[O-])cnn1C (stereo not given) | -1.0% | -0.9% | -3.2% | nt |
| COc1ccc(N2CCN(S(=O)(=O)c3cccc4cccnc34)CC2)cc1 | -18.3% | 54.1% | 0.3% | 1.2 |
| Cc1ccc(S(=O)(=O)Nc2ccc3nc(C)sc3c2)c(C)c1 | nt | -2.2% | ? | nt |
| CCOc1ccc(N2C(=O)C3C(c4ccc(OC)cc4OC)NC(CCSC)(C(=O)OC)C3C2=O)cc1 (stereo not given) | 0.1% | -4.6% | -3.1% | nt |
| COC(=O)C[C@H]1c2cc(F)ccc2S(=O)(=O)N1c1ccccc1 | nt | -11.9% | 0.3% | nt |
| C=CCn1c(SCc2nc3ccccc3[nH]2)nnc1-c1ccccn1 | -16.5% | -8.9% | -1.8% | 11.2 |
| CNC(=S)N1CCN(c2nc(-c3ccc(Cl)cc3)cs2)CC1 | 14.1% | 23.9% | -2.2% | nt |
| CC1(C)C(=O)Nc2ccccc2N1C(=O)COC(=O)Cc1ccccc1F | nt | -13.6% | 1.0% | nt |
| Cc1ccc(S(=O)(=O)N(C)C)cc1NC(=O)C(C)OC(=O)C1CCCC1 (stereo not given) | nt | -6.4% | -1.8% | nt |
| CCOc1ccccc1C(=O)N(Cc1sccc1C)C1CCS(=O)(=O)C1 (stereo not given) | -2.1%&-0.9% | -8.1% | 3.2% | nt |
| Cc1cccc2sc(NC(=O)CN(C)S(=O)(=O)c3ccc(Br)s3)nc12 | 12.4% | 7.6% | -1.0% | -6.2 |
| NCCNc1ccc2nnnn2n1 | -0.5% | -2.2% | ? | -4.0 |
| O=C1C/C(=C/NCc2ccccc2)C(=O)N1 | -1.2% | -1.6% | -2.8% | -4.0 |
| Cc1cc(NC(=O)CSc2nnc(CNC(=O)c3ccc(C(C)(C)C)cc3)o2)no1 | 1.7% | -10.5% | -0.2% | nt |
| CCOc1ccc(S(=O)(=O)N2CC(=O)Nc3ccccc32)cc1 | 20.1% | -5.1% | -0.1% | nt |
| Cc1noc(NS(=O)(=O)c2ccc(NC(=O)c3cc(-c4ccccc4Cl)nc4ccccc34)cc2)c1C | -14.3% | 1.4% | -5.1% | 1.2 |
| CC(=O)c1c(C)[nH]c(C(=O)Nc2cc(F)ccc2C)c1C | -8.0% | 11.8% | 3.5% | nt |
| Cc1ccc(NC(=O)c2cncc(Br)c2)nc1 | -44.0% | -5.9% | -0.8% | nt |
| O=C(Nc1ccccc1)c1cccnc1Nc1ccccc1 | -7.7% | -11.6% | 1.9% | -7.1 |
| COc1ccc(C(=O)NCCSCc2ccc(Cl)cc2)cc1OC | 2.9% | -7.6% | -6.1% | nt |
| COc1ccccc1C(=O)NC(=O)COC(=O)c1ccc(Cl)cc1[N+](=O)[O-] | nt | 1.1% | 2.3% | nt |
| Cc1ccc(OCC(=O)NNC(=O)Nc2ccc(Cl)cc2)c(Br)c1 | nt | -14.8% | -2.4% | nt |
| Cn1nnc(NC(=O)c2cccs2)n1 | -6.0% | 0.2% | 0.3% | 2.1 |
| Cc1ccc(CNC(=O)CC(NC(=O)c2ccccc2)c2ccccc2)cc1 (stereo not given) | nt | 15.7% | ? | nt |
| CCOC(=O)C1CCN(C(=O)COc2ccc(C(=O)c3ccccc3)cc2)CC1 | nt | 39.6% | 3.4% | nt |
| CC1CC(C)CN(C(=O)Cn2nnc(-c3ccc(Br)cc3)n2)C1 (stereo not given) | -1.1% | 5.9% | 1.6% | nt |
| O=S(=O)(Nc1cccc(-n2cnnn2)c1)c1ccccc1C(F)(F)F | 0.7% | 0.8% | 0.1% | nt |
| COc1ccc2oc(C(=O)OCC(=O)N3CCN(C(C)=O)CC3)c(C)c2c1 | nt | -10.5% | ? | nt |
| CCOc1ccc(/C=C(\C#N)C(=O)NCC2CCCO2)cc1OCC (stereo not given) | -0.4% | 9.1% | 4.8% | -7.2 |
| CCOc1ccc(C(=O)NCC2CCN(CC3CCCCC3)CC2)cc1 | 0.1% | 3.7% | -0.4% | nt |
| Cc1cccc(C)c1NC(=O)CN1CCNCC1 | -2.5% | -5.0% | -1.8% | 6.2 |
| CCOC(=O)c1c(C)nn(-c2ccc(NC(=O)CSCC(=O)O)cc2)c1C | -0.3% | -0.7% | 0.3% | 2.2 |
| O=C(CN1CCC(NC(=O)Nc2ccccc2)CC1)Nc1ccc([N+](=O)[O-])cc1 | 15.9% | -1.6% | 0.7% | nt |
| O=C(OC(C(=O)NCc1ccc2c(c1)OCO2)c1ccccc1F)c1ccco1 (stereo not given) | -17.9% | -18.7% | -2.1% | -5.3 |
| CCN1CCN(c2ccc(S(=O)(=O)N3CCOCC3)cc2NC(=O)COc2ccc(F)cc2Cl)CC1 | -0.4% | 0.3% | -4.6% | nt |
| CCOc1ccc(NS(=O)(=O)c2ccc3[nH]c(=O)oc3c2)cc1 | 0.6% | -1.3% | -3.5% | -6.7 |
| Cc1cccc(OCC(=O)O/N=C(\N)Cc2ccc(Cl)cc2)c1 | -1.0% | -13.1% | 0.6% | -1.3 |
| CC(=O)c1ccc(NC(=O)CCc2c(C)nc3ncnn3c2C)cc1 | -51.7% | -6.3% | -5.0% | -4.2 |
| CC(C)[C@H](Nc1ccc(C(F)(F)F)cc1[N+](=O)[O-])C(=O)O | -1.4% | 6.1% | 9.3% | -9.7 |
| COc1ccc(N2CCOCC2)c(NC(=O)c2ccco2)c1 | 4.2% | -0.2% | -0.5% | nt |
| Cc1cc(C(=O)COC(=O)c2cccc(NS(C)(=O)=O)c2)c(C)n1CC1CCCO1 (stereo not given) | nt | -10.3% | -0.7% | nt |
| Cc1noc(C)c1C(=O)OCC(=O)/C=C1\N(C)c2ccccc2C1(C)C | 0.6% | -17.0% | 3.1% | 7.8 |
| N[C@@H](Cc1cnc[nH]1)C(=O)Nc1ccc2ccccc2c1 | nt | 5.2% | 3.5% | nt |
| O=C(Nc1ccnn1C1CCN(C(=O)c2ccc(Cl)c(F)c2)CC1)C1CCOC1 (stereo not given) | 3.6% | 13.5% | 0.2% | nt |
| Cc1ccc(S(N)(=O)=O)cc1 | nt | -2.7% | -2.5% | nt |
| CSc1ncc2[nH]c(C(O)c3ccccc3)nc2n1 (stereo not given) | nt | -17.0% | ? | nt |
| Cc1ccc(N2CN(Cc3ccco3)CNC2=S)c(C)c1 | 5.3% | -9.7% | -4.9% | -8.8 |

Record cards (already shown). Order of screens: miR-21 FLuc | Rango dissoc inh | Rango-impB inh | GLA inh pH 4.5
`Cn1nnc(NC(=O)c2cccs2)n1` is entered as -6.0% | 0.2% | 0.3% | 2.1
`COc1ccc2oc(C(=O)OCC(=O)N3CCN(C(C)=O)CC3)c(C)c2c1` is entered as nt | -10.5% | ? | nt
`CCOc1ccccc1C(=O)N(Cc1sccc1C)C1CCS(=O)(=O)C1` (stereo not given) is entered as -2.1%&-0.9% | -8.1% | 3.2% | nt
`Cc1cc(NC(=O)CSc2nnc(CNC(=O)c3ccc(C(C)(C)C)cc3)o2)no1` is entered as 1.7% | -10.5% | -0.2% | nt

(more compounds)
| Molecule | miR-21 FLuc | Rango dissoc inh | Rango-impB inh | GLA inh pH 4.5 |
| --- | --- | --- | --- | --- |
| Cc1cccc(/C=C/C(=O)c2ccc(N3CCOCC3)cc2)c1 | -18.9% | nt | nt | 3.0 |
| O=C(N/N=C/c1cc(Br)c(Br)o1)c1cccnc1 | -0.4% | -2.1% | 0.2% | -4.7 |
| Cc1cc(C(=O)N/N=C/c2ccc[nH]2)n[nH]1 | -36.9% | -3.0% | -0.2% | -12.6 |
| COc1ccc(/C=c2\s/c(=C/C(=O)c3ccc(C)cc3)[nH]c2=O)c(OC)c1 | -11.2% | ? | ? | -26.0 |
| Cc1ccc(S(=O)(=O)n2nc(OC(=O)c3ccccc3C)cc2N)cc1 | -3.4% | -5.8% | -3.8% | nt |
| COc1ccc(-c2ccc(SCC(=O)c3cccs3)nn2)cc1OC | -25.0% | -2.9% | 2.8% | 4.7 |
| COc1ccc2[nH]c3c(=O)n(CCCC(=O)NC4CCCCC4C)c(=S)[nH]c3c2c1 (stereo not given) | -1.2% | -8.9% | -4.3% | nt |
| Cn1cc(CNC(=O)C2CCC(=O)N(Cc3cccc(C(F)(F)F)c3)C2)cn1 (stereo not given) | -0.1% | -4.5% | 1.8% | nt |
| COc1ccc(C(=O)N2CCc3ccc(NC(=O)c4ccccn4)cc3C2)cc1F | 23.2% | 13.7% | -2.8% | nt |
| O=C(NC1CCCC1)C1CCC(CNS(=O)(=O)c2ccc(F)cc2)CC1 (stereo not given) | -3.9% | 0.9% | -0.3% | nt |
| Cc1nc2c(sc(=S)n2Cc2ccco2)c(=O)n1CC(=O)Nc1ccccc1 | 0.3% | -7.2% | 0.2% | nt |
| CC1(C)C=C(c2ccc(C=O)s2)CC(C)(C)N1 | -2.5% | -10.9% | -0.4% | -3.5 |
| C=CCNC(=O)COc1c(C)ccc(C)c1C | -1.4% | 29.0% | -0.6% | -4.5 |
| CC(=C/c1ccccc1)/C=N/n1c(-c2ccncc2)n[nH]c1=S | 25.2% | -12.2% | -1.3% | -1.4 |
| COC(=O)N/N=C/c1cc(N=Nc2ccccc2Cl)ccc1O | -30.6% | -0.1% | 5.4% | -9.6 |
| Clc1c(-c2nnc3n2CCCCC3)sc2ccccc12 | -51.6% | 1.6% | 0.0% | -3.7 |
| Cc1c(Cl)cccc1NC(=O)NCc1ccc(F)cc1 | -6.7% | 0.5% | 0.5% | 8.4 |
| N#Cc1c(Cc2cccc3ccccc23)nn(CCO)c1N | nt | -20.1% | -2.6% | nt |
| COc1ccc(NC(=O)C2CCC(CNc3c(N4CCOCC4)c(=O)c3=O)CC2)cc1Cl (stereo not given) | -3.2% | 3.7% | -1.4% | -0.6 |
| CCC(C)(C)c1nnc(NC(=O)c2cccc([N+](=O)[O-])c2)s1 | -1.1% | 5.2% | -3.0% | -14.1 |
| Cn1nccc1C(=O)OCC(=O)Nc1cccc(Cl)c1 | nt | 1.8% | -2.6% | nt |
| CCCCn1c(N)c(N(CC(C)C)C(=O)Cn2c(=O)oc3ccccc32)c(=O)[nH]c1=O | nt | 23.4% | -2.2% | nt |
| Cc1cc(OCC(=O)OCC(=O)NCc2ccco2)ccc1Cl | nt | 13.1% | -3.1% | nt |
| CC(C)OCCCNC(=O)Cn1nc(-c2ccccc2)ccc1=O | -3.7% | 1.2% | 1.0% | -8.9 |

Single entries from above:
GLA inh pH 4.5, `C=CCn1c(SCc2nc3ccccc3[nH]2)nnc1-c1ccccn1` is entered as 11.2
Rango-impB inh, `O=C(Nc1ccnn1C1CCN(C(=O)c2ccc(Cl)c(F)c2)CC1)C1CCOC1` (stereo not given) is entered as 0.2%

More records.
| Molecule | miR-21 FLuc | Rango dissoc inh | Rango-impB inh | GLA inh pH 4.5 |
| --- | --- | --- | --- | --- |
| CCc1noc(C)c1C(=O)Oc1ccc(N(C)S(=O)(=O)c2ccc(C)cc2)cc1 | nt | 25.1% | -3.3% | nt |
| COc1ccc(N=CC2CCCCC2=O)c([N+](=O)[O-])c1 (stereo not given) | nt | -3.4% | 1.5% | nt |
| O=C(c1ccc(Cn2c(=S)[nH]c3ccccc3c2=O)cc1)N1CCN(c2ccccn2)CC1 | ? | 2.4% | 3.1% | -1.0 |
| CC(C(=O)NC1CCCc2ccccc21)N1C(=O)C2CCCCC2C1=O (stereo not given) | nt | -1.9% | -0.9% | nt |
| COc1ccc([N+](=O)[O-])cc1NC(=O)Cc1c(Cl)cccc1Cl | 0.0% | 0.0% | -1.0% | 3.2 |
| Cc1cc(C(F)(F)F)nn1CC(=O)Nc1cccnc1 | 3.1% | 14.2% | -2.4% | 2.9 |
| Cc1ccc(SCc2[nH]nc3c2C2(C(=O)Nc4ccc(F)cc42)C(C#N)=C(N)O3)cc1 (stereo not given) | ? | 6.7% | -1.3% | -10.3 |

Screening results (PubChem)
